GLA inh pH 4.5: qHTS Assay for Inhibitors of Human alpha-Galactosidase at pH 4.5 | purified enzyme, 4-MU-alpha-Gal fluorescence, pH 4.5 | activity change, negative = inhibition, % at 105 µM | 230,000 tested, under 10 active; inconclusive = small, poorly fitted or top-dose-only inhibition, or a rising curve; inactive = flat fitted curve, though single readings scatter; no compound was filed as active;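 further: 0% = full activity with enzyme and -100% = basal without enzyme; dose as in the result columns while the protocol names 77 µM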
Target sequence (P06280 whole entry, looked up): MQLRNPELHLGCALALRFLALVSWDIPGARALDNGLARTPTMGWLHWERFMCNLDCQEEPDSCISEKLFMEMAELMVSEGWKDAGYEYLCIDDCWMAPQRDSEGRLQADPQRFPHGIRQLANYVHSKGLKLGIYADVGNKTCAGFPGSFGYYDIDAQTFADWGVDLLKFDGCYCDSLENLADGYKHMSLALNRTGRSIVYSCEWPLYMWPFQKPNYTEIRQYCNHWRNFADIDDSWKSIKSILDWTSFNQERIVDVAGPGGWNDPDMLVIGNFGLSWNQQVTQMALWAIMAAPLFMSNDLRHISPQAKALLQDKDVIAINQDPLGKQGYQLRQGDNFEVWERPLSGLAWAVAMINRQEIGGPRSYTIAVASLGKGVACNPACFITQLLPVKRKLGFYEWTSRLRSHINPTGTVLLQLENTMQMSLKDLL
Rango release inh: qHTS Assay for Inhibitors of RanGTP induced Rango (Ran-regulated importin-beta cargo) - Importin beta complex dissociation | Snurportin-1 (Homo sapiens) + GTP-binding nuclear protein Ran (Homo sapiens) + Importin … | Biochemical FRET Rango-importin beta, RanGTP-induced dissociation | Potency, µM (doses to about 46.1 µM), for inactives: top-dose activity change, negative = inhibition | 0.071% of 340,000 active; active means falling FRET ratio curve, often poorly fitted, with flat reads before Ran was added; inconclusive means other falling curves, or compound fluorescence or quenching; inactive means flat or rising ratio curve;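 further: potency means the concentration at half of the fitted maximal effect; % of control where 0% means no effect; nearly all actives have a fitted effect of over 45% in size; -100% = wells without RanGTP and RCC1; the record marks most hits as doubtful in a second field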
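Compounds preincubate 5 min with complex of recombinant Rango and importin beta in PBS with 1 mM DTT. Ran (0.6 uM) loaded with 2 mM GTP plus 0.2 uM RCC1 starts dissociation; FRET is recorded 45 min later.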
miR-21 reporter: qHTS Assay for Modulators of miRNAs and/orActivators of miR-21 | HeLa miR-21 FLuc reporter, luciferase, 48 h | Potency, µM (highest dose often 38.3 µM), inactives show top-dose reporter change, positive = more light | AID 2288, 2010 | 340,000 tested, under 10 active; active = well fitted rising curve with a large enough effect; inconclusive = small, poorly fitted or top-dose-only effect; inactive = no such curve, though single readings can be large or run the other way;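 further: % of control where 0% means no effect; miR-21 action dims this reporter so a rising signal means less miR-21 action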
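HeLa miR-21-FLuc reporter line, endogenous miR-21; 2000 cells/well in DMEM/10% FBS; compound titration up to ~40uM final, 48 h, 37 degree Celsius; luciferase detection reagent, 15 min lysis, CCD luminescence.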
Rango-impB inh: qHTS Assay for Inhibitors of Rango (Ran-regulated importin-beta cargo) - Importin beta complex formation; 0.031% of 340,000 active; Rango CFP/YFP FRET sensor + importin beta, 45 min; Potency, µM (doses to about 92.2 µM), inactives show at the highest dose inhibition of complex formation; AID 540263, 2011; active = rising FRET ratio curve, often small or poorly fitted; inconclusive = mostly compound fluorescence or quenching in the first reads; inactive = flat curves in all reads;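 further: potency means the concentration at half of the fitted maximal effect; 0% = DMSO wells and 100% = buffer wells lacking importin beta; nearly all actives have a fitted effect of over 15% in size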
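FRET biosensor Rango (snurportin 1 IBB between N-terminal EYFP and C-terminal Cerulean), 50 nM in PBS/1 mM DTT/0.02% Tween-20/0.1% BSA, preincubated 5 min RT with compound; 0.125 microM importin beta added, 45 min RT, CFP/YFP FRET ratio read.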
* hit, by the source's call; ? = inconclusive; nt = no result given; & = joins results of further samples. A portion of the library (hit frequency here may not be typical).

Value order: GLA inh pH 4.5	Rango release inh	miR-21 reporter	Rango-impB inh
- O=C(OCc1nc2ccccc2s1)c1ccco1
 : 4	-1%	-67%	-3.7%
- CCc1ccc(/C=N/NC(=O)c2cc(-c3ccccc3OC)nc3ccccc23)s1
 : 1	7%	0%	?
- COc1ccc(CN2CCSCC2)c(OC)c1C
 : nt	2%	3%	4.1%
- Cc1cc(/C(N)=N/OC(=O)Nc2cccc(C(F)(F)F)c2)no1
 : -9	-17%	0%	-0.8%
- CCOC(=O)c1ccc(NC(=O)Nc2ncc(Cl)cc2Cl)cc1
 : 12	nt	-9%	nt
- Cn1cnnc1-c1cccc(NS(=O)(=O)c2ccc(N3CCCC3=O)cc2)c1
 : 1	8%	-3%	0.3%
- Cc1cccc(C(=O)OCC(=O)NC(=O)NCc2ccccc2)c1
 : nt	1%	nt	-0.9%
- COc1ccc(C(C#N)Nc2ccccc2C)cc1 (configuration not stated)
 : 7	-12%	-3%	0.3%
- COC(=O)c1ccc(CN2CCN(CC(C)C)C(CCO)C2)cc1 (configuration not stated)
 : -12	20%	1%	4.3%
- CCOC(=O)N1CCN(C(=O)CNC(=O)Cc2ccc(Cl)cc2)CC1
 : -2	12%	-2%	0.4%
- Cc1ccc(C(=O)COc2nc(C)cc(C)c2C#N)cc1
 : -4	-13%	-21%	-2.1%
- COc1cccc(C2CC(c3ccccc3Cl)n3nnnc3N2)c1 (configuration not stated)
 : -13	1%	12%	5.6%
- Cn1c(NC(=O)c2cccnc2)nc2ccccc21
 : -13	8%	-34%	4.0%
- CCOC(=O)C1=C(C)N=c2s/c(=C\c3cccc(OCC(=O)O)c3)c(=O)n2C1c1ccccc1OC (configuration not stated)
 : nt	?	-6%	?
- CC(=O)Nc1cccc(NC(=O)c2ccc3c(c2)CCN3S(=O)(=O)c2ccccc2)c1
 : nt	-5%	11%	4.1%
- COc1ccc(OCCCC(=O)Nc2ccc(S(=O)(=O)N3CCOCC3)cc2)cc1
 : nt	36%	nt	0.1%
- Cc1ccc(NC(=O)CSc2nnc(C)n2-c2ccccc2)cc1
 : -14	15%	-6%	1.3%
- Cc1ccc(-c2nnc(N3CCN(C(=O)c4cccs4)CC3)c3ccccc23)cc1
 : 3	-7%	1%	0.6%
- CCOC(=O)c1cccc(NC(=O)C2CCCN(S(=O)(=O)c3c(C)n[nH]c3C)C2)c1 (configuration not stated)
 : 2	0%	1%	7.4%
- COc1ccccc1CN1C(=O)c2ccccc2C1C(=O)NC1CCC(C)CC1 (configuration not stated)
 : 7	1%	-7%	-1.4%
- CC1Cc2ccccc2N1C(=O)CSc1nnc(-c2ccccc2)c(-c2ccccc2)n1 (configuration not stated)
 : 7	-14%	-1%	0.6%
- O=C(CSc1ncn[nH]1)Nc1nsc(-c2ccccc2)n1
 : 0	1%	-8%	-1.6%
- CC(C)c1nnc(NC(=O)c2ccc(N3C(=O)CCC3=O)cc2)s1
 : -10	3%	-15%	-0.3%
- COc1ccc(C2(C(=O)N3CCOCC3)CCOCC2)cc1OC
 : -12	0%	-2%	-5.1%
- CCCN1CCN(c2nc(-c3cccs3)nc3ccccc23)CC1
 : -8	17%	-3%	-3.6%
- COc1ccc(C(=O)/C=C/c2ccsc2)cc1CSCC(=O)O
 : nt	-24%	-5%	-4.4%
- CC(C)(C)c1ccc(C(=O)NCCCNC(=O)c2ccccn2)cc1
 : nt	12%	-14%	-1.1%
- COc1cc(C(=O)NCCC2=CCCCC2)cc(OC)c1OC
 : -3	12%	-5%	3.5%
- CCOC(=O)NC(Nc1nnc(C)s1)(C(=O)OCC)C(F)(F)F (configuration not stated)
 : 4	3%	-3%	1.1%
- COc1cc(S(=O)(=O)Nc2ccc(C(=O)NCC(=O)O)cc2)ccc1NC(C)=O
 : -5	-5%	3%	0.0%
- CCN(CC)Cc1cc(O)c(CN(CC)CC)cc1O
 : -5	-6%	-1%	?
- COCCNC(=O)c1cn(Cc2c(F)cccc2Cl)nn1
 : 2	9%	-6%	-4.3%
- COc1cc(Nc2ccccn2)cc(C(=O)Nc2cccc(C(F)(F)F)c2)c1
 : -5	-13%	30%	-0.1%
- Cc1cnc(CNC(=O)c2ccc3oc(Cc4ccc(Cl)cc4)nc3c2)cn1
 : nt	-5%	0%	-0.4%
- C=CCn1ccc2c([N+](=O)[O-])cccc2c1=O
 : 4	11%	-21%	5.2%
- CC(CCc1ccccc1)NC(=O)c1cncc(Br)c1 (configuration not stated)
 : 10	-3%	-1%	-2.4%
- OC(CNCc1ccccc1)COCc1ccc(Cl)cc1 (configuration not stated)
 : -1	-6%	-6%	-1.0%
- CN(C)CCCNC(=O)c1cc(C(=O)Cc2ccc(Cl)cc2)c[nH]1
 : nt	-4%	-28%	-2.2%
- CCn1c(SCC(=O)Nc2nc(C)cs2)nnc1-c1cccnc1
 : -4	-5%	4%	?
- COc1ccc(-c2cc(C(F)(F)F)nc(SCCC(=O)N3CCCC3)n2)cc1
 : -1	-2%	-5%	2.5%
- Cc1c(CCOC(=O)CC23CC4CC(CC(C)(C4)C2)C3)sc[n+]1Cc1ccc([N+](=O)[O-])cc1
 : nt	5%&7%	-3%	1.0%&2.6%
- Cc1cccc(OCc2nc(-c3cccnc3)no2)c1
 : -8	1%	-29%	-0.5%
- Cc1ccc(-c2nnc3n2N=C(c2ccccc2Br)CS3)cc1
 : -5	0%	-31%	-0.3%
- CCOc1ccc(N(CC(=O)NC2CCCCC2)C(=O)CCCC(=O)Nc2ccccn2)cc1
 : nt	-12%	-3%	2.9%
- Cc1cc(C)n2nc(C(=O)NCCc3ccccc3)nc2n1
 : 4	-1%	-54%	-1.1%
- C=CCc1cc(C)ccc1OCC(O)CN1CCN(c2ccccc2)CC1 (configuration not stated)
 : -27	-2%	4%	-2.4%
- CCC(Cc1ccccc1)NS(=O)(=O)c1c(C)nc2scc(C)n2c1=O (configuration not stated)
 : nt	-6%	-4%	-2.1%
- Cc1csc(NC(=O)C(C)Oc2ccc(Cl)cc2C)n1 (configuration not stated)
 : nt	-4%	nt	2.3%
- O=[N+]([O-])c1ccccc1Nc1ccccc1[N+](=O)[O-]
 : nt	1%	nt	0.1%
- CCCSc1nsc(SCCC)c1C(N)=O
 : 6	-13%	-6%	2.7%

Reprinted from the results shown (four entries):
Value order: GLA inh pH 4.5	Rango release inh	miR-21 reporter	Rango-impB inh
- CCOc1ccc(N(CC(=O)NC2CCCCC2)C(=O)CCCC(=O)Nc2ccccn2)cc1
 : nt	-12%	-3%	2.9%
- Cc1cc(C)n2nc(C(=O)NCCc3ccccc3)nc2n1
 : 4	-1%	-54%	-1.1%
- C=CCc1cc(C)ccc1OCC(O)CN1CCN(c2ccccc2)CC1 (configuration not stated)
 : -27	-2%	4%	-2.4%
- CCC(Cc1ccccc1)NS(=O)(=O)c1c(C)nc2scc(C)n2c1=O (configuration not stated)
 : nt	-6%	-4%	-2.1%

(more compounds)
Value order: GLA inh pH 4.5	Rango release inh	miR-21 reporter	Rango-impB inh
- Cc1ccccc1Cn1c(CN2CCN(C(=O)c3ccco3)CC2)nc2c1c(=O)n(C)c(=O)n2C
 : 10	4%	-7%	2.3%
- O=C(CSc1nc(-c2ccccc2)c(-c2ccccc2)[nH]1)NCCN1C(=O)CSC1=O
 : -8	-13%	26%	-0.2%
- Cc1cccc(Nc2nc(N)c([N+](=O)[O-])c(N3CC(C)OC(C)C3)n2)c1 (configuration not stated)
 : nt	-6%	18%	0.4%
- CCC(=O)N(NC1=NS(=O)(=O)c2ccccc21)S(=O)(=O)c1ccc(C)cc1
 : 11	1%	1%	0.2%
- CCc1nc2ccccc2n1CCC(C)C
 : 0	9%	-9%	-8.7%
- CCNC(=S)NS(=O)(=O)c1ccc(CC)cc1
 : -1	22%	-1%	3.0%
- OCC1(CCOc2ccccc2)CCN(Cc2ccccc2C(F)(F)F)CC1
 : nt	4%	-1%	1.3%
- COc1ccc(Nc2nc(N)nc(CSC(=S)N3CCOCC3)n2)cc1
 : 3	?	-82%	1.3%
- Cc1cccc(N2CCN(C(=O)c3cn4ccccc4n3)CC2C)c1 (configuration not stated)
 : 10	-4%	14%	0.1%
- CCC(C)C1/C=C\CC(NC(=O)OCC2c3ccccc3-c3ccccc32)CC(=O)N1Cc1ccccc1 (configuration not stated)
 : nt	-12%	nt	-0.1%
- CC1=CS/C(=C(/C#N)C(=O)NCc2ccco2)N1c1ccccc1
 : -3	6%	6%	-3.5%
- COc1cc(-c2nc(-c3ccc(NC(=O)c4ccc5c(c4)OCO5)cc3)no2)cc(OC)c1OC
 : -3	-5%	-41%	0.0%
- CCCn1c(SC(C)C(=O)N2CCOCC2)nc2ccc(Br)cc2c1=O (configuration not stated)
 : nt	-5%	nt	0.3%
- CC(C)[C@H](NC(=O)c1ccc(Br)cc1)C(=O)NC1CCCCC1
 : nt	1%	nt	1.6%
- Cc1ccc(Cl)cc1NC(=O)COC(=O)CC(C)(C)C
 : 1	-5%	15%	1.1%
- O=C(Cn1cc([N+](=O)[O-])cn1)N1CCCc2ccccc21
 : -16	2%	-19%	0.1%
- Cc1ccc(C(=O)N2CCN(C(=O)c3ccc(C)cc3)C2)cc1
 : -15	15%	0%	3.0%
- COc1cccc(N/C(SCc2ccccc2C)=C(/C#N)C(=O)NCc2cccs2)c1
 : -1	8%	-2%	-0.6%
- C#CCNC(=O)/C=C/c1ccc(C)cc1
 : 3	10%	-65%	0.0%
- Cc1ccc(C2CN(CCC(N)=O)C(=O)CO2)cc1 (configuration not stated)
 : nt	4%	nt	2.3%
- CCOC(=O)Cn1c(C)c(Br)c(COC)c(C#N)c1=O
 : -1	1%	-1%	0.8%
- C=C[C@@](C)(O)CC[C@@H]1[C@@]2(C)CCCC(C)(C)[C@@H]2CC[C@@]1(C)O
 : 3&-3	14%	0%	-3.7%
- CCN(CC)CCNC(=O)C(=O)Nc1cc2c3c(c1)CCN3C(=O)CC2
 : nt	4%	0%	9.5%
- CCOC(=O)c1cnc(N)nc1C(F)(F)F
 : 1	2%	-16%	-0.3%
- CCCOc1ccc(N2C(=O)CC(N(CCc3ccc(S(N)(=O)=O)cc3)C(C)=O)C2=O)cc1 (configuration not stated)
 : 1	-15%	-2%	0.3%
- CCCCC1=NN(C(=O)c2ccco2)C(O)(C(F)(F)F)C1 (configuration not stated)
 : 1	20%	11%	-1.3%
- NNC(=O)COc1cccc2cccnc12
 : 1	-9%	-5%	-3.0%
- CCN1CCN(S(=O)(=O)CC2(C)C3CCC2(C)C(=O)C3Br)CC1 (configuration not stated)
 : -1	-11%	-1%	-2.0%
- Cc1cccc(NC(=O)CSc2nnc(-c3ccncc3)n2C)c1
 : 12	-10%	-1%	1.9%
- N#Cc1c(NC(=O)c2ccc(Br)o2)n(-c2ccccc2)c2nc3ccccc3nc12
 : -11	?	-3%	?
- Cc1noc(C)c1COc1cccc(C(=O)Nc2ccc(OCc3ccccc3)cc2)c1
 : 11	9%	-12%	2.6%
- COc1ccc(CSc2nnc(CNS(C)(=O)=O)o2)cc1
 : -6	0%	-6%	-4.1%
- Cc1cccc[n+]1C1C(c2ccccc2)C(C#N)=C(C(=C=[N-])C#N)NC1(O)C1CC1 (configuration not stated)
 : 1	?	0%	?
- O=C(c1ccco1)N1CCN(Cc2ccc(F)cc2Cl)CC1
 : nt	?	-52%	-0.8%
- COc1ccc(CNC(=O)CCC(=O)Nc2ccc(Cl)cc2)cc1
 : nt	1%	0%	0.2%
- COc1ccc(OC)c(C(=O)NC(CC(N)=O)c2ccc(NCCN3CCCC3)c([N+](=O)[O-])c2)c1 (configuration not stated)
 : nt	17%	1%	-1.5%
- Cc1nn(Cc2c(F)c(F)c(F)c(F)c2F)c(C)c1NC(=O)c1nn(C)cc1[N+](=O)[O-]
 : 5	1%	-2%	-1.7%
- Cc1ccc(NC(=O)COC(=O)c2ccc(-n3cnnn3)cc2)c(Br)c1
 : nt	-7%	nt	0.0%
- COc1ccccc1NC(=O)CCSc1nnnn1C
 : 6	2%	-6%	-0.5%
- O=C(CCn1c(=O)oc2ccccc21)N1CCN(c2ccccc2Cl)CC1
 : 2	1%	6%	0.3%
